# CtBP-E1A inh: blocks the CtBP interaction with E1A; 0.49% of 340,000 active; AlphaScreen GST-E1A/His-CtBP binding, 1536-well; stronger effect = lower value; control for the full effect not named in the record; activity change, % (concentration not given with the values); in the data active means activity change below about -65%; inconclusive means about -30% to -65%; inactive means above about -30%; further: on the % scale 0 is the no-effect control and ±100 the full control effect
#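 Steps: dispense buffer (Tris pH 8.0, NaCl 300 mM, TCEP 1 mM, BSA, Tween 20); add 5X protein mix (GST-E1A, His-CtBP, 125 nM each); pin 23 nL compound; 2 h at 37 °C, dark; add 5X beads (50 ug/mL); 1 h; read.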
# PINK1 expr mod: modulators of PINK1 expression | AID 624263 | Potency, µM (series often up to 76.6 µM), without a hit: top-dose activation (PINK1 increase), hits mostly activators | 0.2% of 410,000 active | PINK1 immunofluorescence, high-content cytometry, 24 h; active = well fitted activation curve with a large enough effect; inconclusive = small, poorly fitted or top-dose-only effect; inactive = flat fitted curve, though single readings scatter; cell line not stated here;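 further: potency means the concentration at half of the fitted maximal effect; % of control where 0% means no effect; nearly all actives have a fitted effect of over 65% in size; a mitochondrial uncoupler was the plate control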
#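 Readout is PINK1 immunofluorescence, quantified alongside mitochondrial, cell and nuclear markers by laser-scanning microplate cytometry. Cells from a stable line were exposed to compound titrations (5 concentrations) for 24 hours, with CCCP controls.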
# TRPML1 blocker: blocks the human TRPML1 channel | Q9GZU1 | TRPML1-inducible cells, Ca2+ dye fluorescence, FDSS; stronger effect = lower value; inhibition of EC80 agonist-evoked calcium signal | activity change, negative = inhibition, % (concentration not given with the values) | 0.02% of 390,000 active | AID 624415; in the data active means activity change below about -50%; inconclusive means about -30% to -50%; inactive means above about -30%;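 further: stimulus is agonist 54-4 at its EC80 concentration; on the % scale 0 is the no-effect control and ±100 the full control effect; compound concentration not given in the record; the text of the record puts the active cut at -80%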
#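 TRPML1-DL cells, Tet-induced overnight (~16 h, 37 °C) at 1,500 cells/well, were loaded with Ca8 no-wash dye plus quencher for 45-90 min at room temperature. Compounds were pinned during FDSS kinetic reading; agonist 54-4 at EC80 (4 uM final) then added.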
# Six1-Eya2 blk: inhibitors of human Six1/Eya2 interaction; AlphaScreen GST-Six1/His-Eya2 binding, biochemical; stronger effect = lower value; control for the full effect not named in the record; activity change, % (no concentration beside the values); 0.56% of 360,000 active; in the data active = activity change below about -65%; inconclusive = about -30% to -65%; inactive = above about -30%; further: on the % scale 0 is the no-effect control and ±100 the full control effect; compound concentration not given in the record
# Target sequence (O00167 whole entry, looked up): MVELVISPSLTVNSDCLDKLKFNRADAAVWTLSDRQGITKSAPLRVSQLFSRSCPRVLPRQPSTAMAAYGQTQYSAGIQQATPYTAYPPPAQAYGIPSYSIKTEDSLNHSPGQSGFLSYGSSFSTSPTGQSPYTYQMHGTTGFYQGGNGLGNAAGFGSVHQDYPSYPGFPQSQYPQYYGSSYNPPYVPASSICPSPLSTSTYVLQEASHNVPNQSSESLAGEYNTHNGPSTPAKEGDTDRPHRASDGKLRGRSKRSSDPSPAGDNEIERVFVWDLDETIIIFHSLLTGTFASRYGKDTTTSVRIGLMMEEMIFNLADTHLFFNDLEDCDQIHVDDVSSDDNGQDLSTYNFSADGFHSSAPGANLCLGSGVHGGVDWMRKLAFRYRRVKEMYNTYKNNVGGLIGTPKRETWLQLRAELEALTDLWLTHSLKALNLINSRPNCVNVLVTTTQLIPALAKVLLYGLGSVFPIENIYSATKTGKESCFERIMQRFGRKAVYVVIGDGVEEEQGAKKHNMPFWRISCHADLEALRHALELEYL
# Target sequence (Q15475 whole entry, looked up): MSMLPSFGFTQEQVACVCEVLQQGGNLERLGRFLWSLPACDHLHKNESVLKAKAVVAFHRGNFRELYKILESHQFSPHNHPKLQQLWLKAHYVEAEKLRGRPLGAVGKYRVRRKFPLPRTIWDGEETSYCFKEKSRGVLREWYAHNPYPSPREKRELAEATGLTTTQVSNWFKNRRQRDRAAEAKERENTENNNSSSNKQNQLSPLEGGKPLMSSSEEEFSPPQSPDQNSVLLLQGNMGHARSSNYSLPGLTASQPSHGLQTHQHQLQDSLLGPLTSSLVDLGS
#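 AlphaScreen luminescence read after one hour at 37 °C in darkness. Pin-transferred compounds met GST-Six1 and His-Eya2 protein (5X stock 250 nM/500 nM) plus glutathione donor and Ni-chelate acceptor beads (5X, 50 ug/mL).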
# TRPML1 agonist: human mucolipin-1 channel agonism; Q9GZU1; TRPML1-expressing cells, Ca2+ dye fluorescence, FDSS; host cell line not named in the record; reference of the full effect not given here; activation, % (no concentration beside the values); 0.12% of 410,000 active; AID 624414; in the data active = activation above about 50%; inconclusive = about 30% to 50%; inactive = below about 30%; further: 0% is about no effect; the text of the record puts the active cut at 80%
#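 In this qHTS format, compounds were pin-transferred onto Ca8-dye-loaded TRPML1-DL cells induced with Tet overnight, and intracellular Ca2+ fluorescence was recorded kinetically for 110 s after a 10 s baseline. A subsequent 4uM final 54-4 (EC80) addition followed by a second 110 s read served as the antagonist phase.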
# D2 ag: activates the human D2 dopamine receptor | DiscoveRx PathHunter D2 beta-arrestin, luminescence, 90 min; 100% = 57 uM dopamine signal | 0.084% of 360,000 active | activation, % (concentration not given with the values) | P14416; in the data active = activation above about 40%; inconclusive = about 15% to 40%; inactive = below about 15%; further: compound concentration not given in the record; the text of the record calls up to 30% inactive
#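 Agonist mode: compounds alone added to overnight-plated D2 PathHunter cells for 90 min at 37 C, with 57 uM final dopamine (EC100) defining full response. Beta-arrestin recruitment detected by chemiluminescent reagent, read after 1 h at ambient temperature.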
# * hit, by the source's call; ? = inconclusive; . = not tested or not shown; & = joins results of further samples.
1. O=C(/C=C/c1ccco1)Nc1ccc(F)cc1
2. CCOC(=O)c1c(-c2ccc(OC)cc2)oc2ccc(OCc3ccc(Br)cc3)cc12
3. Cn1nnnc1SCC(=O)Nc1c(Cl)cccc1Cl
4. COC(=O)COc1ccc(S(=O)(=O)NCCC2=CCCCC2)cc1
5. COc1ccc(OC)c(S(=O)(=O)NCCc2csc(-c3cccnc3)n2)c1
6. COCCN(C(=O)c1ccco1)c1nnc(-c2ccc(F)cc2)s1
7. CN1C(c2ccc(F)cc2)=CS/C1=C(/C#N)c1nnc2n1-c1ccccc1SC2
8. COc1ccc(O)c(/C=N/NC(=S)NCCc2ccccc2)c1

Assay by compound,1,2,3,4,5,6,7,8
TRPML1 blocker,-4.8,-17.0,1.8,-5.4,-1.6,-13.8,-0.6,5.4
Six1-Eya2 blk,.,.,10.9,3.9,10.8,-2.1,-14.2,?
CtBP-E1A inh,.,.,5.3,3.3,7.3,-5.9,-12.2,?
D2 ag,.,.,-1.0,-2.0,-3.5,-1.7,-0.1,5.5
TRPML1 agonist,0.1,-1.2,3.2,0.4,-0.6,-0.1,0.0,2.2
PINK1 expr mod,0.0%,0.2%,-1.1%,.,10.7%,-1.7%,-2.7%,-1.6%

# Whole records, quoted from the list. Values in the order: TRPML1 blocker, Six1-Eya2 blk, CtBP-E1A inh, D2 ag, TRPML1 agonist, PINK1 expr mod
# `CN1C(c2ccc(F)cc2)=CS/C1=C(/C#N)c1nnc2n1-c1ccccc1SC2` in the list: -0.6, -14.2, -12.2, -0.1, 0.0, -2.7%
# `COCCN(C(=O)c1ccco1)c1nnc(-c2ccc(F)cc2)s1` in the list: -13.8, -2.1, -5.9, -1.7, -0.1, -1.7%
# `CCOC(=O)c1c(-c2ccc(OC)cc2)oc2ccc(OCc3ccc(Br)cc3)cc12` in the list: -17.0, ., ., ., -1.2, 0.2%
# `COc1ccc(OC)c(S(=O)(=O)NCCc2csc(-c3cccnc3)n2)c1` in the list: -1.6, 10.8, 7.3, -3.5, -0.6, 10.7%
# `Cn1nnnc1SCC(=O)Nc1c(Cl)cccc1Cl` in the list: 1.8, 10.9, 5.3, -1.0, 3.2, -1.1%

# Returning to the listing, repeating the two entries before the break.
7. CN1C(c2ccc(F)cc2)=CS/C1=C(/C#N)c1nnc2n1-c1ccccc1SC2
8. COc1ccc(O)c(/C=N/NC(=S)NCCc2ccccc2)c1
9. O=C(NCCc1cccs1)C1CC(c2ccccc2F)=NO1 (centres undefined)
10. CN(c1cccc(NC(=O)CN(c2cccc(Cl)c2)S(=O)(=O)c2ccc(Cl)cc2)c1)S(C)(=O)=O
11. COc1ccc(S(=O)(=O)NCC(c2cccnc2)N2CCN(c3ccccc3OC)CC2)cc1C (centres undefined)
12. COc1ccc(NC(=O)C2CC(=O)N(c3ccc(C)cc3)C2)cc1S(=O)(=O)N1CCCCC1 (centres undefined)
13. CCNC(=O)C1CCCN(C(=O)c2ccc3ccccc3c2)CC1 (centres undefined)
14. CCOc1ccc(-n2c(SCc3nc(-c4ccccc4C)no3)nnc2-c2ccccc2)cc1
15. CC(C)(C)[C@H]1C=C(C(=O)N2CCOCC2)O[C@@H](OCc2ccc(CO)cc2)C1
16. C=C1CCN([C@@H](CC(C)C)C(=O)NCc2ccco2)S(=O)(=O)c2ccccc21

Assay by compound,7,8,9,10,11,12,13,14,15,16
TRPML1 blocker,-0.6,5.4,-5.6,17.7,-6.9,22.8,.,-16.2,-8.5,25.0
Six1-Eya2 blk,-14.2,?,7.2,0.1,-3.5,6.4,15.7,.,6.0,6.2
CtBP-E1A inh,-12.2,?,5.4,-2.5,-11.7,-4.2,-5.4,.,5.0,-22.4
D2 ag,-0.1,5.5,2.5,-0.8,-0.7,0.5,-5.1,.,-0.2,-2.6
TRPML1 agonist,0.0,2.2,-0.7,3.9,0.0,0.3,-0.6,0.8,-0.9,1.4
PINK1 expr mod,-2.7%,-1.6%,-1.7%,-0.4%,-0.1%,-1.1%,1.8%,0.7%,0.1%,-1.5%

17. CCc1cccc(NC(=O)CCNS(=O)(=O)c2ccc3c(c2)CCN3C(C)=O)c1
18. C[C@@H]1CN([C@@H](C)CO)C(=O)Cc2cc(NS(=O)(=O)c3cn(C)cn3)ccc2O[C@@H]1CN(C)C(=O)Nc1ccccc1
19. CC(=O)c1cccc(NC(=O)Cn2cnc(S(=O)(=O)N3CCc4ccccc43)c2)c1
20. Cc1ccc2nc(N3C(=O)C(O)=C(C(=O)c4ccco4)C3c3ccc(C)o3)sc2c1 (centres undefined)
21. CC(=O)OCC1=C(C(=O)O)N2C(=O)C(NC(=O)c3ccc(COc4ccc(Cl)cc4)o3)C2SC1 (centres undefined)
22. N#Cc1ccccc1Sc1ccccc1N
23. CC(C)(C)CN1CCC(Oc2cccc(C(=O)N3CCC[C@H]3CO)c2)CC1
24. Cc1ccc(NC(=O)CCN2C(=O)C3CC=CCC3C2=O)cc1Cl (centres undefined)

Assay by compound,17,18,19,20,21,22,23,24
TRPML1 blocker,21.1,28.7,35.4,5.2,4.1,-7.5,-11.3,13.4
Six1-Eya2 blk,.,0.1,-3.5,-11.2,-15.3,4.6,-8.7,6.4
CtBP-E1A inh,.,2.7,-1.4,-26.1,-0.4,5.3,-4.2,5.8
D2 ag,.,-0.5,1.6,-7.5,-6.4,-3.3,2.6,1.3
TRPML1 agonist,-0.9,0.1,0.0,0.8,-0.4,2.9,-0.3,-0.1
PINK1 expr mod,-0.5%,-0.3%,0.8%,-0.1%,-1.6%,?,-0.5%,1.7%

25. COc1ccc(C)cc1NC(=O)CCNC(=O)Cn1ccc2ccccc2c1=O
26. COCCNc1nc(Cl)c(C#N)s1
27. Cc1ccc(NC(=O)[C@H](NC(=O)[C@@H]2Cc3ccccc3CN2)c2ccccc2)cc1
28. Cc1ccc(CNC(=O)c2ccc(CNS(=O)(=O)c3ccc4c(c3)C(C)(C)C(=O)N4C)cc2)o1
29. CCC(=O)NC(c1ccc(Cl)cc1Cl)c1ccc2cccnc2c1O (centres undefined)
30. O=C(NCC(=O)N1CCN(C(=O)c2ccco2)CC1)c1ccccc1
31. COc1ccc(Oc2cccc(Cl)c2CNC(=O)CC(C)(C)CC(=O)O)cc1
32. O=C(N/N=C/c1c[nH]c2ccccc12)c1ccccc1O

Assay by compound,25,26,27,28,29,30,31,32
TRPML1 blocker,13.9&-1.8,-7.8,-5.1,-13.6,25.8,-4.9,4.8,15.4
Six1-Eya2 blk,-3.9,11.4,0.9,0.7,-80.1*,6.5,9.8,-3.7
CtBP-E1A inh,-13.1,.,-8.6,-3.4,?,3.5,-0.7,-18.6
D2 ag,-6.9,0.1,0.0,-5.9,0.9,-0.3,-2.1,-7.6
TRPML1 agonist,1.1&-0.8,0.5,-0.8,-1.0,0.7,0.8,-0.2,0.7
PINK1 expr mod,3.9%&0.1%,0.4%,0.1%,0.6%,-2.2%,2.0%,0.0%,2.5%

33. CC(C)OC(=O)c1c(NC(=O)C2CC=CCC2C(=O)O)sc2c1CCCCC2 (centres undefined)
34. C[C@@H]1CN([C@@H](C)CO)S(=O)(=O)c2ccc(Br)cc2O[C@H]1CN(C)C(=O)Nc1ccc(C(F)(F)F)cc1
35. Cc1ccc(C)c(NC(=O)CSc2nnc(-c3cc4occc4n3C)n2-c2ccccc2C)c1
36. CCOc1ccc(CCNC(=O)CSCC(=O)Nc2cccc(C)c2)cc1OCC
37. COc1cc(C(=O)N/C(=C\c2cn(C)c3ccccc23)C(=O)NCCCO)cc(OC)c1OC
38. Cc1cc(C)cc(NC(=O)C2CCN(S(=O)(=O)c3ccc4c(c3)NC(=O)C(C)S4)CC2)c1 (centres undefined)
39. CC(=O)c1cccc(NC(=O)[C@H](Cc2ccccc2)N2Cc3ccccc3C2=O)c1
40. O=c1c2ccccc2[nH]c(=S)n1CCCN1CCN(C2CCCCC2)CC1

Assay by compound,33,34,35,36,37,38,39,40
TRPML1 blocker,-10.4,4.0,-10.6,-1.1,29.1,-3.8,0.5,-19.7
Six1-Eya2 blk,-13.2,5.9,.,-7.2,-6.4,-5.6,.,-7.1
CtBP-E1A inh,5.8,4.6,.,-8.7,-0.6,-5.0,.,-2.6
D2 ag,-8.1,-1.7,.,-6.9,4.6,3.7,.,2.0
TRPML1 agonist,1.8,10.7,1.7,-0.1,0.3,-0.1,0.4,1.3
PINK1 expr mod,-2.2%,?,-0.4%,-0.9%,-2.1%,0.2%,2.0%,1.0%

41. Cn1cc(S(=O)(=O)c2cccc(Cl)c2)c(=O)c2cc(F)c(N3CCN(c4ccc(F)cc4)CC3)cc21
42. Cc1c(C(=O)Nc2c(F)cccc2F)sc2ncnc(N3CCN(c4ccccc4)CC3)c12
43. COc1ccc(OCc2nnc(SCc3ccc(C(=O)O)cc3)o2)cc1
44. CC(=O)Nc1cccc(C(=O)/C=C/c2ccco2)c1
45. Cc1ccccc1NC(=O)CSc1nnc2ccc(-c3ccccn3)nn12
46. Cc1cccc(OCC(=O)Nc2ccc3c(C)cc(=O)oc3c2)c1
47. CCCCN(CCCC)Cc1ccc(C(=O)NNC(=O)Nc2ccccc2)o1
48. Cc1ccc(OCC(=O)Nc2ccc3nn(-c4ccc(C)cc4)nc3c2)cc1

Assay by compound,41,42,43,44,45,46,47,48
TRPML1 blocker,14.8,11.4,-6.7,15.3,-10.4,3.8,36.1,-4.7
Six1-Eya2 blk,.,-3.0,1.8,-2.6,0.0,2.8,-3.1,.
CtBP-E1A inh,.,.,3.4,4.1,0.0,2.2,-9.3,.
D2 ag,.,-0.7,-1.5,-3.9,-6.7,-0.9,-2.7,.
TRPML1 agonist,2.1,0.6,0.1,0.1,2.4,0.6,-0.5,-0.3
PINK1 expr mod,4.6%,-1.3%,-0.2%,4.0%,-0.3%,6.5%,1.4%,2.2%

49. Cc1nnc(N2C(=O)C(O)=C(C(=O)c3ccco3)C2c2cccc3ccccc23)s1 (centres undefined)
50. O=C(O)c1ccccc1SSc1ccccc1C(=O)O
51. O=C(CSc1nc2ccccc2c(=O)n1-c1ccccc1)NC(=O)CN1CCCC1=O
52. O=C(O)Cc1cc(=O)[nH]n(-c2ccccc2)c1=O
53. O=C(CCC1CCCC1)NNC(=O)c1cccc(Cl)c1
54. O=C(COC(=O)Cc1ccc(Cl)cc1Cl)NCc1ccccc1
55. CCOC(=O)c1c(C)[nH]c(C(=O)CN2C(=O)NC3(CCCC3)C2=O)c1C

Assay by compound,49,50,51,52,53,54,55
TRPML1 blocker,49.3,1.7,2.9,-12.5,-3.5,2.1,-1.1
Six1-Eya2 blk,-2.3,-22.9,-16.0,2.6,-0.4,0.9,0.0
CtBP-E1A inh,8.4,-7.6,-0.5,-5.2,1.9,9.8,4.6
D2 ag,-0.2,-3.3,-0.9,-0.7,1.4,-0.5,-0.5
TRPML1 agonist,2.6,1.1,0.5,2.1,0.2,-0.5,-0.5
PINK1 expr mod,-0.4%,6.7%,-0.7%,-1.4%,-1.0%,0.7%,5.8%

# Assay outcomes deposited in PubChem by National Center for Advancing Translational Sciences (NCATS).
